FGF22 binding: binders of human FGF22 protein, primary screen, FGF22 synaptogenesis inhibitor project, biophysical, thermal shift, single point. Fibroblast growth factor 22 (Homo sapiens), Q9HCT0. recombinant FGF22 thermal shift, SYPRO orange fluorescence; percent of sucrose octasulfate shift, DMSO zero. AID 651658, 2012. 340,000 compounds, 1.5% hits. calls only at 9.99 µM;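 active = melting point raised past a set limit in the mean and every replicate; three in four hits are not shown here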
Target sequence (Q9HCT0 whole entry, looked up): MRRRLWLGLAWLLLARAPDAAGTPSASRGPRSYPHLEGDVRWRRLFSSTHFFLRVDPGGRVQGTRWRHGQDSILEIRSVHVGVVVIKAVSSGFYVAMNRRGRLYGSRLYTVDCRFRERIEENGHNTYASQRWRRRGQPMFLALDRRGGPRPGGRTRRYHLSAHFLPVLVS
HNF4A DNA FP: change in binding of human HNF4A to DNA, primary screen, biochemical, fluorescence polarization, FITC-DNA; 1 h; activity change, % at 10 µM; 360,000 compounds, 0.3% hits; AID 1224865, 2016; in the data active = activity change above about 30%, passing the limit was not always enough;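 note: controls were the assay level and a saturating level of protein; the project sought stronger binding though the title names inhibitors; some compounds called inactive have numbers as strong as hits; positive values seem to mean higher polarization but the record does not say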
Target sequence (P41235 whole entry, looked up): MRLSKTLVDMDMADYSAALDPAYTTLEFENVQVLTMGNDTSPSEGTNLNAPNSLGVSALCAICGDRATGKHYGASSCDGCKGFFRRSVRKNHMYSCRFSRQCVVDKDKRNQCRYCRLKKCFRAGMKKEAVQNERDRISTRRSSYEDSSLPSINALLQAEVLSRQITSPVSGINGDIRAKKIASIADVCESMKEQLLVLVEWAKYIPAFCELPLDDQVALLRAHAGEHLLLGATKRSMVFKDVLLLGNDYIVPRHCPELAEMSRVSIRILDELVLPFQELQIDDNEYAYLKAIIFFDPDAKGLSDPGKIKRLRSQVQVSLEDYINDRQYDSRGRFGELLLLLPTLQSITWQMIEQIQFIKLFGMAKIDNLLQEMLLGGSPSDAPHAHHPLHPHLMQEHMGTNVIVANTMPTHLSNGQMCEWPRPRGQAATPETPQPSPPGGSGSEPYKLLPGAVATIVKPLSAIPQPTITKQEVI
B2AR ag: beta2AR agonists driving receptor internalization, primary screen, cell-based, FAP fluorogen, flow cytometry; Beta-2 adrenergic receptor (Homo sapiens), P07550; Am2.2-beta2AR cells; reference of the scale not given here; response, % (no concentration beside the values); 340,000 compounds, 0.43% hits;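 active = response above a set limit, near 3 SD of response in nonfluorescent compounds, cut at about 42% in these data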;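 note: stock transfer was 100 nL into about 11 µL; a reference agonist was the positive control; negative values mostly stem from fluorescent compounds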
Target sequence (P07550 whole entry, looked up): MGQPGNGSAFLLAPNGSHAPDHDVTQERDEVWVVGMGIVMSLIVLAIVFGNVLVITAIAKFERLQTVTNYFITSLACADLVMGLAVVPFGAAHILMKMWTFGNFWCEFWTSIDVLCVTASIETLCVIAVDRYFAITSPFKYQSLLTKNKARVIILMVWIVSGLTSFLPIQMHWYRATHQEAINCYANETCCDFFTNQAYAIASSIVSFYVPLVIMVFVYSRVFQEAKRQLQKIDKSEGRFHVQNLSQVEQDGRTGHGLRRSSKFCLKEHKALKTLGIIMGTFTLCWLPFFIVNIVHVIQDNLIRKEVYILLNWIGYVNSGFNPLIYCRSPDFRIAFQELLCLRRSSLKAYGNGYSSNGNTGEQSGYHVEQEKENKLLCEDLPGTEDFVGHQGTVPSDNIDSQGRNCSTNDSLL
ALR H2O2 inh: inhibitors of human ALR sulfhydryl oxidase, primary screen, biochemical, H2O2 detection, HRP-luminol luminescence, single point | 290,000 compounds, 3.8% hits | purified ALR, DTT oxidation | inhibition, % (test concentration not listed) | AID 485317, 2010;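 active = mean and each replicate at 75% or more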;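 note: stock transfer was 7.5 nL into about 7.5 µL; 0% = neutral wells and 100% = wells with inactivated enzyme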
Ecoli growth: E. coli growth inhibition, primary screen, OD600. Escherichia coli growth, 23 h; stronger effect = lower value. OD600 absorbance (test concentration not listed). 330,000 compounds, 0.21% hits;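 active = OD600 absorbance below the run mean of sample wells minus 3.6 SD, in any replicate, cut at about 0.56 in these data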;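 note: stock transfer was 300 nL into about 60 µL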
LANA-H2A inh: blockers of LANA interaction with H2A/H2B – biochemical, FP readout, HTS, primary screen; inhibition, % (concentration not given with the values); cell-free LANA-H2A/H2B peptide, fluorescence polarization; Protein LANA1 (Human herpesvirus 8 type P (isolate GK18)), Q9QR71; 320,000 compounds, 0.6% hits; in the data active = inhibition mostly above about 10%, no sharp cut-off; inactive = mostly below about 6.7%;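 note: stock transfer was 7.5 nL into about 10 µL; 0% = median of vehicle wells and 100% = median of positive control wells; one replicate is shown; the record names a cut of 25% in any replicate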
UCH37 DUB inh: inhibitors of human UCH37 deubiquitinase, primary screen, biochemical, Ub-AMC cleavage, fluorescence. Ubiquitin carboxyl-terminal hydrolase isozyme L5 (Homo sapiens), Q9Y5K5. AID 588478, 2011. 330,000 compounds, 0.33% hits. purified proteasome/UCH37. inhibition, % (test concentration not listed);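 active = mean of two replicates above 20%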;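 note: 0% = compound-free wells with enzyme and 100% = wells lacking proteasome; stock transfer was 100 nL into about 20 µL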
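Material: human UCH37 enzyme supplied as purified proteasome complex. Measure: % inhibition of Ub-AMC cleavage fluorescence. Medium: pH 7.4 Tris-HCl (50 mM) with ovalbumin, ATP-MgCl2, DTT. Times: 30 min preincubation with enzyme, 25 min cleavage at room temperature. Detection: AMC fluorescence intensity at 355/460 nm.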
Active calls of the source: *; i = inactive; · = no result given. This is a subset. The share of hits here may be higher or lower than overall.

SMILES	FGF22 binding	HNF4A DNA FP	B2AR ag	ALR H2O2 inh	Ecoli growth	LANA-H2A inh	UCH37 DUB inh
COc1ccccc1NC(=O)C1CCCN(c2cc(C)nc3ncnn23)C1 (stereo unspecified)	·	3.0	-10.1	22.2	0.74	-0.7	-3.3
COc1ccccc1NC(=O)c1nn(-c2ccc(OC(F)(F)F)cc2)ccc1=O	·	-6.9	4.6	-0.4	0.728	-4.0	5.5
CCOC(=O)/C(C#N)=C/c1cc2ccccc2nc1Cl	i	2.4	-4.7	8.2	0.652	-1.1	2.9
CS(=O)(=O)N(CC(=O)N1CCN(Cc2ccccc2)CC1)c1ccccc1F	i	0.6	-7.4	5.0	·	-2.9	·
CCC1(C)Cc2c(sc3nc(SCC(=O)c4ccccc4)[nH]c(=O)c23)CO1 (stereo unspecified)	i	-2.4	5.5	-20.8	0.696	12.5	0.5
Cc1ccc(-c2nnc(Oc3ccc(NC(=O)c4ccccc4)cc3)c3ccccc23)cc1	·	-5.2	-6.6	·	0.737	·	2.7
C=CCN(CC=C)S(=O)(=O)c1ccc(C(=O)Nc2nc3c(s2)CCc2ccccc2-3)cc1	·	-2.9	9.1	-34.5	0.72	-3.9	-8.8
COc1ccc(CN(C)C(=O)c2ccc3c(=O)n4c(nc3c2)CCC4)c(OC)c1	i	1.6	12.8	-2.5	0.662	-1.0	-7.9
CCCCCCCCOC(=O)C[N+](C)(C)C/C=C(/C)Cl	i	0.2	3.4	3.4	0.645	-0.2	2.8
CS(=O)(=O)c1ccc(Cl)c(NC(=O)COC(=O)c2ncc(Cl)c(Cl)c2Cl)c1	i	-0.6	-3.8	0.7	0.625	-5.7	0.9
CCC(C)C(=O)Nc1nc(C)c(-c2csc(Nc3ccccc3OC)n2)s1 (stereo unspecified)	i	2.9	18.7	15.4	0.741	0.9	4.0
O=C1CC(N2CCN(C3CCc4ccccc4C3)CC2)C(=O)N1c1ccccc1 (stereo unspecified)	·	-0.8	-4.4	-56.3	0.689	-2.4	3.5
C=CCn1c(SCC(=O)NC2CC2)nnc1-c1cccc(OC)c1	i	0.1	-10.9	3.3	0.702	-0.6	0.2
O=C(Nc1nc2c(Cl)cccc2s1)C1CC1	i	0.1	-5.1	-0.4	0.677	3.9	-0.9
COC(=O)C(C)n1cnc2c(nnn2-c2cccc(Cl)c2)c1=O (stereo unspecified)	i	-3.5	16.5	-17.8	0.703	1.0	4.9
COc1cc(=O)n(C)c2c(OCC(O)C(C)(C)O)cccc12 (stereo unspecified)	i	-1.8	-1.8	-0.9	0.669	-2.0	-0.2
CCS(=O)(=O)N1CCN(C(=O)c2cccc3ccccc23)CC1	i	3.2	2.5	-17.2	0.615	7.1	1.9
COc1ccc(C(=O)c2c(C)oc3ccc(O)cc23)cc1	i	3.2	0.8	16.6	0.684	-0.7	2.9
CCOC(=O)c1c(NC(=O)c2c(C(=O)O)cccc2[N+](=O)[O-])sc2c1CCCC2	i	0.0	7.6	1.9	0.656	-4.1	10.1
COc1ccc(N2CCN(C(=O)COC(=O)c3c(-c4ccccc4)noc3C)CC2)cc1	i	3.3	-3.2	34.9	0.657	-2.6	3.2
COc1cccc(Nc2ncnc3nc[nH]c23)c1	i	0.5	-5.5	·	0.703	4.8	7.7
CC(=O)Nc1cccc(C(=O)O)n1	i	3.5	-5.2	0.2	0.681	5.6	1.4
O=C(O)C1CCCCC1C(=O)Nc1ccc2c(c1)OCO2 (stereo unspecified)	i	-0.8	4.4	·	0.681	7.4	1.2
CCOC(=O)c1ccccc1NC(=O)N1CCn2c(C)ccc2C1CC (stereo unspecified)	·	0.8	-2.0	7.1	0.697	-8.8	-1.0
NC(=O)N/N=C/c1sc(=O)n(-c2ccccc2)c1Cl	i	27.4	-4.5	·	·	0.9	·

Whole records as entered above:
CS(=O)(=O)c1ccc(Cl)c(NC(=O)COC(=O)c2ncc(Cl)c(Cl)c2Cl)c1 in the list: FGF22 binding = i; HNF4A DNA FP = -0.6; B2AR ag = -3.8; ALR H2O2 inh = 0.7; Ecoli growth = 0.625; LANA-H2A inh = -5.7; UCH37 DUB inh = 0.9
CCOC(=O)/C(C#N)=C/c1cc2ccccc2nc1Cl in the list: FGF22 binding = i; HNF4A DNA FP = 2.4; B2AR ag = -4.7; ALR H2O2 inh = 8.2; Ecoli growth = 0.652; LANA-H2A inh = -1.1; UCH37 DUB inh = 2.9

Going on with the list:
SMILES	FGF22 binding	HNF4A DNA FP	B2AR ag	ALR H2O2 inh	Ecoli growth	LANA-H2A inh	UCH37 DUB inh
CC(C)[C@H](NC(=O)N1CCn2c1nc1ccccc12)C(=O)NCCc1ccccc1	i	1.4	-19.6	-5.7	0.667	2.4	1.6
NC(=O)Nc1ccccc1C(=O)Nc1ccc2ccccc2c1	i	1.4	3.6	·	0.7	1.2	-0.3
O=C(CCCn1c(=O)[nH]c2ccccc2c1=O)NC1CCCCCC1	·	1.1	-11.9	1.9	0.718	-0.7	2.6
Cc1cc(C)cc(OCC(=O)OCC(=O)c2c(N)n(C)c(=O)n(C)c2=O)c1	·	0.0	4.9	0.7	0.722	-5.0	1.9
O=C(COc1ccc2cc(-c3ccccc3)c(=O)oc2c1)NCC1CCC(C(=O)O)CC1 (stereo unspecified)	·	0.1	0.8	3.9	0.805	-5.9	i
Cc1ccc(NC(=O)Cn2nnc(C(=O)NCc3ccc(Cl)cc3)c2N)cc1F	i	1.0	-1.9	-0.3	0.63	-2.3	-1.4
CC1CCCC(C)N1/N=C/c1ccc([N+](=O)[O-])cc1 (stereo unspecified)	i	2.1	-279.3	-14.1	·	-2.3	·
Cc1cc(C)n2nc(C(=O)N/N=C/c3cn(C)nc3C)nc2n1	i	5.0	-1.4	-3.2	·	0.1	·
O=C(CSc1nnc(-c2ccccc2)n1-c1ccc(Cl)cc1)N/N=C/c1ccccc1C(=O)O	i	3.4	3.8	-2.6	·	-1.1	·
CC(=Nc1ccccc1C)C1=C(O)CSC1=O	i	4.1	-1.2	-29.1	0.652	1.2	1.1
O=C(COc1ncnc2ccc(Br)cc12)NCc1ccc2c(c1)OCO2	·	-1.7	0.4	1.5	0.747	-3.2	-3.5
N#Cc1c(N)nc(SCc2ccccc2)c(C#N)c1-c1ccco1	i	2.0	-2.0	-15.2	0.7	1.6	-30.9
COc1ccc(NC(=O)CSc2nnc(Cn3c(=O)sc4ccccc43)n2C)cc1	i	1.7	-3.9	-4.2	0.69	4.2	-0.9
COc1nc(NCCN2CCOCC2)nc(Nc2ccccc2)n1	·	-0.2	-9.7	-6.1	0.765	-0.4	1.0
O=C1NC(=O)c2c(NC(=O)C3CCCO3)cccc21 (stereo unspecified)	i	-1.5	5.8	-3.9	0.684	0.0	-91.5
C[C@H](NC(=O)c1nc[nH]c1C(=O)NCC(=O)OC(C)(C)C)C(=O)OCc1ccccc1	i	2.7	0.6	·	·	2.1	1.6
Cc1ccccc1CN1[C@@H](Cc2ccccc2)COCCS1(=O)=O	·	-0.8	19.4	11.0	·	0.4	3.8
CC(=O)c1cc(-c2ccccc2)n(CC(=O)NCc2cccs2)c1C	·	-3.0	-4.9	-5.2	0.744	4.9	-0.1
CCOC(=O)c1ccc(N2C(=O)C(CC(=O)NC)N(CCc3ccc(OC)c(OC)c3)C2=S)cc1 (stereo unspecified)	i	0.8	1.9	-8.3	0.717	2.9	3.5
CCOC(=O)N/N=C\c1ccc(OC/C=C/c2ccccc2)c(OC)c1	i	3.7	-14.3	-0.6	·	-4.7	·
O=C(c1cccc(NS(=O)(=O)c2ccccc2)c1)N1CCCC1	i	-1.3	-6.7	1.1	0.68	-1.0	0.1
Cc1cc(O)c(-c2cc(C(=O)Nc3sc4c(c3C(=O)NCc3ccco3)CCC4)[nH]n2)cc1C	i	2.0	8.2	0.1	0.689	-7.1	-85.4
COC(=O)C1C(=O)c2c(C)noc2CC1(C)C (stereo unspecified)	i	0.4	-1.6	-3.7	0.685	5.8	-0.4
CCN(C1CCS(=O)(=O)C1)S(=O)(=O)c1ccc2ccccc2c1 (stereo unspecified)	i	0.2	-1.3	-4.1	0.736	2.5	4.5
COc1ccc(NC(=S)NCC2CCCO2)c(C)c1 (stereo unspecified)	i	-0.8	6.4	-0.4	0.697	-2.3	1.4

Additional results.
SMILES	FGF22 binding	HNF4A DNA FP	B2AR ag	ALR H2O2 inh	Ecoli growth	LANA-H2A inh	UCH37 DUB inh
CCCCCOc1ccc(Cn2ccnc2)cc1[N+](=O)[O-]	i	1.2	-4.5	-10.6	0.642	10.3	6.8
CC(C)CN(C(=O)c1ccc(=O)n(C)n1)c1c(N)n(Cc2ccccc2)c(=O)[nH]c1=O	i	-4.5	0.3	-2.1	0.691	-0.5	2.0
CCC(Sc1nc2ncnc(N)c2[nH]1)C(=O)O (stereo unspecified)	i	-6.0	-1.7	-3.8	0.669	·	1.9
O=C(CN1CCCC1)Nc1ccc(NC(=O)Nc2ccccc2)cc1	·	0.6	-10.3	-0.1	0.771	3.4	-1.9
Cc1c(C(=O)O)sc2nc(C)n(C)c(=O)c12	·	0.5	-2.4	-3.2	0.665	1.4	4.1
CC(=O)NNC(=O)CCC(=O)Nc1ccccc1	·	-2.9	-0.7	-4.3	0.629	-1.1	1.0
COc1ccc(N2CCN(C(=O)CSc3ccccc3)CC2)cc1	·	2.5	4.5	7.2	0.669	-6.3	1.3
Cc1cccc(C(c2c(C)nn(-c3ccccc3)c2N)c2c(C)nn(-c3ccccc3)c2N)c1	·	1.4	5.3	·	0.688	1.0	-0.6
O=C1COCCOCCOCCOCC(=O)NCCN1	·	-1.1	-0.7	-2.0	0.685	4.1	2.7
Cc1ccc(S(=O)(=O)N2CCCOC2CNC(=O)C(=O)NCc2ccc3c(c2)OCO3)cc1 (stereo unspecified)	i	1.7	-6.5	1.4	0.675	1.9	1.9
COCCNC(=O)C(=O)NCC1OCCN1S(=O)(=O)c1ccc2c(c1)OCCO2 (stereo unspecified)	i	-0.9	-5.8	-5.3	0.682	3.0	0.1
CS(=O)(=O)N1CCCC(C(=O)Nc2cccc(F)c2)C1 (stereo unspecified)	i	5.7	-0.4	·	0.646	0.3	1.5
CCCN(CCC)CC(O)Cn1c2ccccc2c2ccccc21 (stereo unspecified)	i	2.3	8.2	·	0.668	1.3	2.1
c1ccc(CN2CCC(Nc3ncnc4sccc34)CC2)cc1	i	2.5	8.4	-1.3	0.701	0.3	3.5
Cc1cc(NNC(=O)Nc2cccc(Cl)c2)nc2c1c(C)nn2C	·	·	·	-7.2	0.666	1.8	4.0
CCOc1ccc(N(C)C(=O)CCc2nnc3ccc(N4CCOCC4)nn23)cc1	i	2.3	-10.6	-2.9	0.654	8.5	-1.2
Cc1cc(C)nc(SCNC(=O)c2ccccc2)n1	·	4.4	-9.2	2.4	0.721	-3.2	3.4
CCCCNC(=O)N(O)C1N(/N=C/c2ccc(N(C)C)cc2)C(=S)SC1(C)C (stereo unspecified)	i	-2.1	4.9	98.8*	·	1.8	·
O=C1C(Cl)=C(Nc2cccc(O)c2)C(=O)N1Cc1ccccc1	i	-2.5	-3.7	0.0	0.618	-5.7	0.9
COc1ccc(NC(=O)c2ccc(-n3c(C)ccc3C)cc2)c(OC)c1	i	-1.7	-8.4	·	0.707	·	0.1

A second format for part of the listing above:
| molecule | FGF22 binding | HNF4A DNA FP | B2AR ag | ALR H2O2 inh | Ecoli growth | LANA-H2A inh | UCH37 DUB inh |
| --- | --- | --- | --- | --- | --- | --- | --- |
| Cc1cc(NNC(=O)Nc2cccc(Cl)c2)nc2c1c(C)nn2C | · | · | · | -7.2 | 0.666 | 1.8 | 4.0 |
| CCOc1ccc(N(C)C(=O)CCc2nnc3ccc(N4CCOCC4)nn23)cc1 | i | 2.3 | -10.6 | -2.9 | 0.654 | 8.5 | -1.2 |
